PKD1 inh: inhibitors of human PKD1 kinase, biochemical, fluorescence polarization | Serine/threonine-protein kinase D1 (Homo sapiens), Q15139 | PKD1 kinase fluorescence polarization assay | inhibition, %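 (about 10 µM by stock and volumes)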 | hit rate 0.056% among 200,000 | AID 797, 2007;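 active = inhibition of 50% or more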;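 note: controls were vehicle for no effect and a reference inhibitor for full effect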
Target sequence (Q15139 whole entry, looked up): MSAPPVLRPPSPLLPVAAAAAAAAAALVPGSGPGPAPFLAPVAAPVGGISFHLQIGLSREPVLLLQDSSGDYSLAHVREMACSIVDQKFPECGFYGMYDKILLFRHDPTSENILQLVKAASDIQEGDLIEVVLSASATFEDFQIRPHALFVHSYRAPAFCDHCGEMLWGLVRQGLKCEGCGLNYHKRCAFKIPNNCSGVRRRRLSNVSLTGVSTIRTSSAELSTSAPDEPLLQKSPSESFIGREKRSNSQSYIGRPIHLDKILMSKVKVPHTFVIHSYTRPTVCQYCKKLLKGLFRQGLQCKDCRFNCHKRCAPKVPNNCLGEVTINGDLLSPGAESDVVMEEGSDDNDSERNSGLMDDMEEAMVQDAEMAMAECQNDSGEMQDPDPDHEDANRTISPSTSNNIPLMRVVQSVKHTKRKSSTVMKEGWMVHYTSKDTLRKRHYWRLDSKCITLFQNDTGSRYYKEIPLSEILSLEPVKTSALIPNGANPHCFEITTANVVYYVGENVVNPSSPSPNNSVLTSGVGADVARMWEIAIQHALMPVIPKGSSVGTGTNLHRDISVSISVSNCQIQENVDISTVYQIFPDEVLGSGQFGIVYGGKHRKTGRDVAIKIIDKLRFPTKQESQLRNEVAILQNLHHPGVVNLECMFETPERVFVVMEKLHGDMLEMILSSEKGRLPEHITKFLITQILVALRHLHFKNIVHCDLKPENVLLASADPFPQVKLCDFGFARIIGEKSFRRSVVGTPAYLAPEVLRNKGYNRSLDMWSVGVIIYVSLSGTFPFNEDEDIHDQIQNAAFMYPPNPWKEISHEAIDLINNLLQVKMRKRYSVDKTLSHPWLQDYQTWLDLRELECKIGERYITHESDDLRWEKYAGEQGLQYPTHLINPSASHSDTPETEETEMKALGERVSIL
RGS16-Gao HTS: modulators of RGS16 binding to Galphao, primary screen, biochemical, human proteins, multiplexed bead flow cytometry; Regulator of G-protein signaling 16 (Homo sapiens) + Guanine nucleotide-binding protein …; bead-based flow cytometry RGS16-Galphao binding, fluorescence; actives lie on both sides; binding response (% of control), % at 10 µM; hit rate 0.38% among 220,000;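 active = below 25% or above 175%, edge rows of some plates excepted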;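 note: Galphao activated by GDP with aluminum fluoride before binding; 100% = wells without compound and 0% = beads without RGS; some results beyond the cut were filed as inactive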
GALR2 agonist: GALR2 receptor agonists, primary screen, cell-based | GALR2-expressing cells, agonist activation read-out | Galanin receptor type 2 (Homo sapiens), O43603 | hit rate 0.48% among 140,000 | activation, %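 (tested at 5 µM)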;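 active = above mean plus 3 SD of all compounds, about 5% in these data, not always enough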;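 note: 0% = vehicle buffer wells and 100% = reference agonist at full effect; tested in CHO reporter cells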
HSV augment: enhancers of HSV replication in host cells, fold increase, host cell viability. hit rate 0.005% among 220,000. maximum fold increase. HSV replication augmentation in cells. AID 1956, 2009;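 active = peak rise of 1.5-fold or more in the series; tested in PC3 cells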;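 note: first round at 10 µM; read as green reporter fluorescence; hits show the peak of a series up to 25 µM; 1 = signal of infected wells without compound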
INS promoter inh: inhibitors of insulin promoter-driven GFP, primary screen, imaging, TRM-6 cells (human fetal islet line), eGFP reporter, cell count. reporter expression induced with tamoxifen. inhibition, % at 2 µM. hit rate 0.9% among 130,000;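 active = inhibition above the mean plus 3 SD, with well images judged a real hit on visual review, cut at about 60% in these data, passing the limit was not always enough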
INS promoter inh cell count: recorded beside INS promoter inh, whose call it bears; normalized cell count, %; measured here: cell count, toxicity; reference of the scale not given here;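 cells exposed to compound for 48 h; stained nuclei by imaging scaled within each plate; lower means fewer cells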
HSV augment primary fold: second read-out of HSV augment, no call of its own (marks repeat the call); fold increase; compound at 10 µM; measured here: primary screen fold increase 10 uM; tested in PC3 cells;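 GFP signal in the first replicate; 1 = infected wells without compound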
An asterisk follows results filed as active; i = inactive; nt = no result given.

molecule,PKD1 inh,RGS16-Gao HTS,GALR2 agonist,HSV augment,HSV augment primary fold,INS promoter inh,INS promoter inh cell count
Cc1cccc(N(CC(=O)N/N=C/c2cc([N+](=O)[O-])ccc2Cl)S(C)(=O)=O)c1C,-13.6,99.7,-1.4,i,0.86,-15.8,67.1
COc1ccc(CNC(=O)c2ccc3nccnc3c2)cc1,-1.0,100.8,0.1,i,0.81,nt,nt
COc1ccc(/C=N/NC(=O)CCSc2nc3ccccc3s2)cc1OC,1.8,98.3,0.2,i,0.8,-21.4,103.8
COc1ccc(/C(C)=N/NC(=O)CNC(=O)CCc2ccccc2)c(OC)c1,nt,99.9,nt,i,1.02,nt,nt
Cc1ccc(SCCN2CCN(CCc3ccccc3)CCC2=O)cc1,nt,110.2,nt,i,0.845,nt,nt
c1ccc(Cc2nn[nH]n2)cc1,-27.4,105.0,-0.9,i,0.9,nt,nt
CCc1c(C(=O)Nc2cc(C)cc(C)c2)[nH]c(C)c1C(C)=O,-0.4,99.9,-1.9,i,0.94,23.1,112.6
O=C(O)CNC(=O)C(c1ccccc1)c1ccccc1,nt,97.7,nt,i,0.91,nt,nt
CCOc1ccc(OCCSc2nc(N)cc(=O)[nH]2)cc1,nt,98.0,nt,i,1.24,nt,nt
CCc1nc(SCC(=O)c2ccc(Cl)s2)c2oc3ccccc3c2n1,4.3,107.2,-1.2,i,0.82,32.4,111.7
CN(C1CCCCC1)S(=O)(=O)c1ccccc1,-8.6,105.4,-2.4,i,0.86,-12.9,225.6
O=C1CC2c3ccccc3C1C1C(=O)N(CCO)C(=O)C21 (centres undefined),5.8,104.6,nt,i,1.07,nt,nt
COc1ccc([N+](=O)[O-])cc1NC(=O)CSc1ccc2ccccc2c1,0.8,72.7,-1.2,i,0.85,-10.0,62.9
O=S(=O)(NCC1CCCO1)c1cnc(Cl)c(Cl)c1 (centres undefined),5.5,112.0,0.3,i,0.98,nt,nt
c1cnc(N2CCSCC2)nc1,-3.9,104.8,-1.6,i,1.02,-7.1,140.2
N=c1ncn(CC(O)CN2CCOCC2)c2nc(N3CCOCC3)[nH]c12 (centres undefined),-7.1,100.4,-1.2,nt,nt,-83.3,94.4
CCC(Oc1ccc2ccccc2c1)C(=O)O (centres undefined),-7.7,89.8,-1.8,i,1.02,20.0,112.2
Cn1nc(C(=O)OCC(=O)Nc2cccc(S(=O)(=O)N3CCCC3)c2)c2ccccc2c1=O,nt,94.6,nt,i,1.01,nt,nt
O=c1c2sc3nc(N4CCOCC4)c4c(c3c2nnn1Cc1ccccc1)CCCC4,-15.5,103.8,-0.7,i,0.8,26.7,75.2
CCOC(=O)/C=c1\s/c(=C\c2ccc(C)cc2)c(=O)n1CC(=O)NCc1ccco1,-13.9,86.8,8.2*,i,0.81,nt,nt

Complete entries, looked up by structure. Values in the order: PKD1 inh, RGS16-Gao HTS, GALR2 agonist, HSV augment, HSV augment primary fold, INS promoter inh, INS promoter inh cell count
Shown for `CCOc1ccc(OCCSc2nc(N)cc(=O)[nH]2)cc1` → nt, 98.0, nt, i, 1.24, nt, nt
Shown for `COc1ccc(CNC(=O)c2ccc3nccnc3c2)cc1` → -1.0, 100.8, 0.1, i, 0.81, nt, nt

Pulled by structure from the list above, 2 records:
molecule,PKD1 inh,RGS16-Gao HTS,GALR2 agonist,HSV augment,HSV augment primary fold,INS promoter inh,INS promoter inh cell count
CCOC(=O)/C=c1\s/c(=C\c2ccc(C)cc2)c(=O)n1CC(=O)NCc1ccco1,-13.9,86.8,8.2*,i,0.81,nt,nt
CCOc1ccc(OCCSc2nc(N)cc(=O)[nH]2)cc1,nt,98.0,nt,i,1.24,nt,nt

New compounds follow:
molecule,PKD1 inh,RGS16-Gao HTS,GALR2 agonist,HSV augment,HSV augment primary fold,INS promoter inh,INS promoter inh cell count
Cc1ccc(C(=O)NC(=S)Nc2ccc(S(=O)(=O)N(C)c3ccccc3)cc2)cc1,-4.8,108.2,-1.8,i,0.86,30.0,119.9
O=C(NCc1ccccn1)c1c(O)c2cccc3c2n(c1=O)CC3,14.7,98.8,-1.3,i,0.86,16.7,39.9
CCOc1ccc(N(C(=O)c2cnccn2)C(C(=O)NC2CCCCC2)c2ccc(O)cc2)cc1 (centres undefined),-4.7,97.7,nt,i,0.92,nt,nt
Cc1ccc(N2CCN(CCCN3C(=O)C4CCCN4C3=O)CC2)cc1 (centres undefined),-9.4,107.5,-0.4,i,0.99,-33.3,108.7
CCOC(=O)CSc1nnc(CNC(=O)c2ccc(OC)cc2OC)n1C,-3.6,94.9,-1.7,i,0.78,nt,nt
COc1ccc(C)cc1S(=O)(=O)N(CC(=O)N1CCOCC1)Cc1ccccc1,-1.2,98.7,-1.0,i,0.91,nt,nt
CCOC(=O)C1(Cc2cccc(F)c2)CCN(CC(O)CO)CC1 (centres undefined),nt,98.9,nt,i,0.93,nt,nt
COc1ccc(-c2nnc(SCC#CCO)o2)cc1OC,18.0,94.1,-1.0,i,0.91,nt,nt
COc1cc(/C=N/Nc2nc(N3CCCCC3)nc(N3CCCCC3)n2)ccc1OC(=O)c1ccco1,-1.6,95.7,nt,i,0.96,-50.0,150.8
COc1cc(/C=C(\C#N)C(N)=O)ccc1OCc1c(C)no[n+]1[O-],nt,100.6,nt,i,0.96,nt,nt
Cc1nc2c(C(=O)NCCC(C)C)c[nH]n2c(=O)c1Cc1ccccc1F,-6.0,98.6,-2.6,i,0.78,0.0,97.3
O=C(O)COCc1nc2ccccc2s1,nt,94.0,nt,i,0.85,nt,nt
c1cnc(-c2nnc3n2CCCCC3)cn1,14.8,113.8,-0.9,i,0.94,42.9,83.2
COc1cccc(NCc2ccc([N+](=O)[O-])s2)c1,-7.3,151.3,-0.3,i,1.06,-20.0,35.5
O=C1Nc2c(Br)cc(Br)c3cccc1c23,0.9,57.0,nt,i,0.98,-16.7,57.5
O=C1CCCc2oc3ccc(NS(=O)(=O)c4cccc5cccnc45)cc3c21,-2.4,100.0,nt,i,1.05,nt,nt
CC(C)NC(=O)c1ccc2c(=O)n(Cc3ccco3)c(=S)[nH]c2c1,2.7,83.8,-2.6,i,0.96,23.3,142.7
O=C(CSc1nnc(-c2ccc(O)cc2)n1Cc1ccco1)N1CCc2ccccc2C1,-0.6,106.2,-1.5,i,1.05,nt,nt
O=C(NCCCN1CCN(Cc2ccccc2)CC1)C1CCN(S(=O)(=O)N2CCCC2)CC1,-12.3,128.1,-2.5,i,0.83,-15.4,186.7
O=C(COc1ncnc2c(Cl)cc(Cl)cc12)Nc1cc([N+](=O)[O-])ccc1Cl,-15.0,104.5,0.2,i,0.75,-11.1,155.7
CCOC(=O)CSc1nc(=O)n2cccc(C)c2n1,2.6,102.6,nt,i,1.13,nt,nt
COc1cc(OC)c(S(=O)(=O)Nc2ccccc2N2CCOCC2)cc1NC(C)=O,-0.4,100.9,nt,i,0.92,nt,nt
CCOC(=O)Cc1csc(CC(N)=O)n1,nt,100.3,nt,i,1.07,nt,nt
CC12CCC(C(=O)N3CCCCCC3)(OC1=O)C2(C)C (centres undefined),-8.6,96.5,0.4,i,1.07,-13.8,126.7
CC1=C(C#N)S(=O)(=O)C(C#N)C(c2ccccc2)C1 (centres undefined),nt,101.1,nt,i,1.11,nt,nt
CCCCCC(=O)Nc1cccc(C2=NOC3(C2)C[C@H](C(N)=O)N(C(=O)CC#N)C3)c1 (some centres undefined),nt,97.6,nt,i,0.92,nt,nt
Cc1ccc(Nc2cnn(C34CC5CC(CC(CC(=O)O)(C5)C3)C4)c(=O)c2Cl)cc1,-0.1,-190.9,11.1,i,0.93,-26.9,48.8
COc1ccc(-n2cnnc2SCC(=O)Nc2ccc(N3CCOCC3)cc2)cc1,1.9,96.4,-3.9,i,1,3.3,105.1
N#Cc1c(N2CCN(c3ccc(F)cc3)CC2)nc(N)c2c(N)nc3c(c12)CC(=O)N3C1CC1,-2.1,90.8,nt,i,0.94,nt,nt
CCCNC(=O)CCn1nc(-c2ccc(Cl)cc2)c2ccccc2c1=O,nt,105.0,nt,i,0.95,nt,nt
CN(C)S(=O)(=O)c1cccc(-n2sc3ccccc3c2=O)c1,-0.1,17.1*,nt,i,0.98,nt,nt
COc1cccc2c(=O)c(C(=O)NCc3cccs3)c[nH]c12,8.8,96.5,-1.2,i,0.68,25.0,54.0
O=C(O)c1cccc(-c2nc3ccccc3[nH]2)c1,-2.3,99.4,0.5,i,1.02,nt,nt
O=C(COc1ccccc1/C=C1\SC(=O)NC1=O)Nc1ccccc1,1.0,73.4,nt,i,1.02,81.8*,38.1*
Cc1cc(NC(=O)CN(C)C)c([N+](=O)[O-])cc1C,3.0,100.2,nt,i,0.99,nt,nt
COc1cccc(OCC(O)CN2CCN(c3ccc(Cl)cc3)CC2)c1 (centres undefined),nt,102.0,nt,i,0.88,nt,nt
COc1ccc(/C=C(\C#N)C(=O)N2CCOCC2)cc1Br,-10.6,100.9,-0.1,nt,nt,-29.2,110.1
Cc1cc(C)nc(NC2=NCC(=O)N2c2ccc3c(c2)OCCO3)n1,-1.4,99.7,0.5,i,0.9,36.8,97.9
Cc1cc(C)c2c3c(sc2n1)C(=O)N(C)CC(=O)N3,-0.3,101.3,0.3,i,0.92,23.5,122.0
CCOC(=O)c1c(NC(=O)CC(C)C)sc(C(C)=O)c1C,-2.6,93.7,-1.3,i,0.82,62.5,136.9

Some of these compounds in order of their number in GALR2 agonist, highest first:
| Structure | GALR2 agonist |
| --- | --- |
| COc1ccc(/C=C(\C#N)C(=O)N2CCOCC2)cc1Br | -0.1 |
| COc1cccc2c(=O)c(C(=O)NCc3cccs3)c[nH]c12 | -1.2 |
| CCOC(=O)c1c(NC(=O)CC(C)C)sc(C(C)=O)c1C | -1.3 |

Following part.
molecule,PKD1 inh,RGS16-Gao HTS,GALR2 agonist,HSV augment,HSV augment primary fold,INS promoter inh,INS promoter inh cell count
CCCOc1ccc(NC(=O)C2CCCNC2=O)cc1 (centres undefined),-5.7,172.4,-1.9,i,1.01,nt,nt
Cc1cc(C)cc(-n2c(C)cc(/C=N/NC(=O)CN(c3c(C)cccc3C)S(C)(=O)=O)c2C)c1,-7.9,100.2,-1.4,i,0.91,-11.4,116.8
O=C(Nc1ccc(S(=O)(=O)N2CCCC2)cc1)c1cccs1,4.8,106.3,nt,i,0.98,nt,nt
Cc1ccccc1SCCNC(=O)c1ccccc1Br,-1.3,100.7,nt,i,1.04,-11.8,104.9
Cc1ccc(C(=O)COC(=O)CNC(=O)c2ccco2)cc1,3.7,103.8,-3.7,i,0.88,nt,nt
S=c1[nH]nc(-c2ccco2)n1/N=C/c1ccc(Cl)c(Cl)c1,5.1,97.4,-2.3,i,0.94,nt,nt
Cc1c(Cl)c([N+](=O)[O-])nn1CC(=O)N1CCCc2ccccc21,1.3,99.5,-0.4,i,1.08,8.3,78.0
O=C(CN1CCOCC1)NNc1c2ccccc2nc2ccccc12,nt,107.0,nt,i,0.9,nt,nt
CCCCCNCC(=O)Nc1cc(C(F)(F)F)ccc1OCCOC,-11.8,117.2,nt,i,0.76,nt,nt
CCOC(=S)SCC(=O)Nc1nccs1,2.3,98.4,nt,i,1.1,-100.0,80.1
COc1cccc(/C=N/NC(=O)c2cc3c(OC)cccc3[nH]2)c1OC,8.6,102.7,-3.4,i,0.81,-56.2,117.4
CCn1cc(C(=O)NCc2ccco2)c(=O)c2cc(S(=O)(=O)N3CCCCCC3)ccc21,3.2,87.9,-0.5,i,0.76,nt,nt
CCn1cc(/C=N\NC(=O)Cc2ccc([N+](=O)[O-])cc2)c(C)n1,-3.5,100.5,-0.6,i,1.08,28.6,158.0
COCCn1c(SCc2nc3cc(OC)c(OC)cc3c(=O)[nH]2)nnc1-c1ccncc1,0.0,99.2,-2.7,i,1.04,2.3,140.8
CN(C)S(=O)(=O)c1cccc(C(=O)NC(=S)N(CCC#N)Cc2cccnc2)c1,-10.1,99.1,nt,i,1.01,-14.3,120.7
CNC(=O)c1sc(Nc2cc(C)ccc2C)nc1C,-5.4,91.5,nt,i,1.07,nt,nt

Shown as a hit in GALR2 agonist (from the list above):
Structure | PKD1 inh | RGS16-Gao HTS | GALR2 agonist | HSV augment primary fold
CCOC(=O)/C=c1\s/c(=C\c2ccc(C)cc2)c(=O)n1CC(=O)NCc1ccco1 | -13.9 | 86.8 | 8.2* | 0.81

High-throughput results as filed in PubChem.
